Screening results deposited in PubChem BioAssay by ICCB-Longwood Screening Facility, Harvard Medical School.
Sa growth inh: blocks Staphylococcus aureus growth | S. aureus RN4220 growth, OD600, 20 h, 42 °C; hits give low values | relative growth, % (test concentration not listed) | 0.53% of 170,000 active;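 active = growth at 42 °C up to 50% and 20 or more points under that at 30 °C, or under 10% at both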;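 note: 300 nL library stock went into each well; scaled to the means of positive and negative controls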
HCMV UL50-53 inh: disrupts HCMV UL50-UL53 complex binding; AID 1918969; HTRF UL50-UL53 interaction, normalized percent inhibition; inhibition, % (concentration not given with the values); 0.15% of 190,000 active;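 active = both replicates at 50% or more, plus weaker picks with an unusually low signal ratio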;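 note: stock transfer was 100 nL into about 20 µL; 0% = negative control wells and 100% = wells with untagged competitor protein; inactives centre near -12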
GIV Gai3 FP: inhibitors of GIV GBA-motif binding to rat Galpha-i3; Galpha-i3/FITC-GIV peptide fluorescence polarization, 90 min; hits give low values; scaled: aluminum fluoride 0%, vehicle 100%; AID 1224905; 0.42% of 210,000 active; P08753; percent of control (FP), % (test concentration not listed);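 active = replicate mean at 85% of control or lower, very high polarization wells dropped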;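 note: wells of about 15 µL received 100 nL stock; the first replicate is given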
Target sequence (P08753 whole entry, looked up): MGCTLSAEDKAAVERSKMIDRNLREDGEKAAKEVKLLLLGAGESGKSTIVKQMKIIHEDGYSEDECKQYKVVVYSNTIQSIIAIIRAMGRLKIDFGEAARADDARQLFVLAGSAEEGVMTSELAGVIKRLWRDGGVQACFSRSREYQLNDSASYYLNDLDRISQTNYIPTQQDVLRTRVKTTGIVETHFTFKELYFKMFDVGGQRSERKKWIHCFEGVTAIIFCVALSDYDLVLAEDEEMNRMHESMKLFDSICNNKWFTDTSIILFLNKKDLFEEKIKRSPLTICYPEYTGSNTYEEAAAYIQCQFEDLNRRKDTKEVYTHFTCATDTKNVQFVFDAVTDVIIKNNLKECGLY
Sa growth inh second temp: recorded beside Sa growth inh, whose call it bears; relative growth, %; measured here: growth at 30 °C;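 optical density after 20 h as mean of two plates; 100% = untreated growth and lower means inhibition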
Starred values were filed as active, the others as inactive; & = joins results of further samples.

For COC(=O)C1CCN(C(=O)c2ccc(NC(C)=O)cc2)CC1 the results were Sa growth inh 89, HCMV UL50-53 inh -14, GIV Gai3 FP 93 and Sa growth inh second temp 91.
CC(C)(C)C(=O)O/N=C/c1ccc2c(c1)OCO2 was read as Sa growth inh 93, HCMV UL50-53 inh -20, GIV Gai3 FP 103 and Sa growth inh second temp 91.
For Cc1ccc(COC2CN(S(=O)(=O)Cc3ccccc3)C2)cc1 the results were HCMV UL50-53 inh -18 and GIV Gai3 FP 101.
Screening N#CSc1ccc(Nc2cc(N3CCCCCC3)c3nonc3c2[N+](=O)[O-])cc1 returned HCMV UL50-53 inh -12 and GIV Gai3 FP 108.
Screening NC1CCN(C(=O)NC2CCCCC2)CC1 returned Sa growth inh 109, HCMV UL50-53 inh 1, GIV Gai3 FP 104 and Sa growth inh second temp 84.
`CC(=O)Nc1ccc(NS(=O)(=O)c2c(C(=O)N3CCCCCC3)c(C)n(C)c2C)cc1` gave Sa growth inh 76, GIV Gai3 FP 100 and Sa growth inh second temp 86.
Screening CCOC(=O)c1c(NC(=S)NC(=O)c2c(I)cnn2C)sc2c1CCC(C)C2 (stereo unspecified) returned Sa growth inh 106, HCMV UL50-53 inh -22, GIV Gai3 FP 101 and Sa growth inh second temp 95.
Screening Clc1nsnc1N1CCOCC1 returned Sa growth inh 103, HCMV UL50-53 inh -7 and Sa growth inh second temp 78.
COc1ccc(OC)c(S(=O)(=O)N2CCC(C(=O)NCCC3=CCCCC3)CC2)c1 was read as Sa growth inh 108, HCMV UL50-53 inh 1, GIV Gai3 FP 98 and Sa growth inh second temp 71.
Screening CC[C@H](C)NC(=O)CCCc1nnc2n(CCC(C)C)c(=O)c3sccc3n12 returned Sa growth inh 89, GIV Gai3 FP 99 and Sa growth inh second temp 88.
Screening CCOC(=O)CC1(C)NNC(=S)NN1 returned Sa growth inh 56, GIV Gai3 FP 94 and Sa growth inh second temp 51.
`CN(C)C(=O)CN1CCC(N2CCCCC2)CC1` gave Sa growth inh 86, HCMV UL50-53 inh 13, GIV Gai3 FP 97 and Sa growth inh second temp 103.
`CCCN(Cc1nnc(-c2ccco2)o1)C(=O)c1ccccc1SCC(=O)Nc1ccc(F)cc1` gave Sa growth inh 90, HCMV UL50-53 inh -18 and Sa growth inh second temp 84.
`CC(=O)Nc1ccc(C2Nc3ccccc3-c3nc4ccccc4n32)cc1` (stereo unspecified) gave Sa growth inh 88, HCMV UL50-53 inh -18 and Sa growth inh second temp 90.
Cc1nn(-c2ccccc2)c2c1-c1sc(C(=O)NCc3ccc(N(C)C)cc3)cc1CC2 was read as HCMV UL50-53 inh -7 and GIV Gai3 FP 109.
For Cc1ccc(-n2c(N)c(C#N)c3nc4ccccc4nc32)c(C)c1 the results were Sa growth inh 96, HCMV UL50-53 inh -41 and Sa growth inh second temp 73.
For COc1ccc(C2=NN(C(C)=O)C(c3ccc(Br)cc3)C2)cc1 (stereo unspecified) the results were HCMV UL50-53 inh -5 and GIV Gai3 FP 102.
`CCOC(=O)c1cnc2ccc(Cl)cc2c1-c1ccccc1` gave HCMV UL50-53 inh 18 and GIV Gai3 FP 108.
For COC(=O)c1cc2c(N)c(C(=O)OC)sc2nc1C(OC)OC the results were Sa growth inh 110, HCMV UL50-53 inh -70, GIV Gai3 FP 98 and Sa growth inh second temp 96.
CCOC(=O)CN1CSC2=C(C#N)C(c3ccc(Cl)cc3)CC(=O)N2C1 (stereo unspecified) was read as Sa growth inh 99, GIV Gai3 FP 99 and Sa growth inh second temp 68.
COc1cc(OC)c(Br)cc1Br was read as Sa growth inh 112, HCMV UL50-53 inh 14, GIV Gai3 FP 106 and Sa growth inh second temp 97.
Screening CCC(Oc1ccccc1)c1nc(-c2ccccc2)no1 (stereo unspecified) returned Sa growth inh 97, HCMV UL50-53 inh -4, GIV Gai3 FP 104 and Sa growth inh second temp 83.
For CCN(CC)C(=O)c1ccc2nc(NC(=O)c3ccc(OC(C)=O)cc3)sc2c1 the results were Sa growth inh 83, HCMV UL50-53 inh -7, GIV Gai3 FP 98 and Sa growth inh second temp 64.
Screening Cn1cccc1/C=C/C(=O)OCC(=O)NC1(C#N)CCCCC1 returned Sa growth inh 95, HCMV UL50-53 inh -48 and Sa growth inh second temp 85.
Screening COC(=O)C1=C(CNc2ccc(I)cc2)NC(=O)NC1c1cc(C)ccc1C (stereo unspecified) returned Sa growth inh 94, HCMV UL50-53 inh 3, GIV Gai3 FP 102 and Sa growth inh second temp 98.
Screening CC(C(=O)C12CC3CC(CC(C3)C1)C2)N1CCCC1 (stereo unspecified) returned Sa growth inh 91, HCMV UL50-53 inh -13, GIV Gai3 FP 111 and Sa growth inh second temp 78.
Cc1ccc(C)c(N2CCN(C(=O)CCCN3CCSc4ccccc43)CC2)c1 was read as HCMV UL50-53 inh -6 and GIV Gai3 FP 108.
COc1ccc(CNC(=O)CCc2c(C)nn(-c3ccc(N4CCCCC4)nn3)c2C)c(OC)c1 was read as Sa growth inh 79, GIV Gai3 FP 100 and Sa growth inh second temp 92.
Screening CCN(CC)CCNCc1ccc(-c2ccccc2)o1 returned Sa growth inh 119, HCMV UL50-53 inh -14&-11, GIV Gai3 FP 105&104 and Sa growth inh second temp 82.
Screening COC(=O)c1ccc(CC2(Cc3ccc(C(=O)OC)o3)C(=O)N(C)C(=O)N(C)C2=O)o1 returned Sa growth inh 77, HCMV UL50-53 inh -25 and Sa growth inh second temp 90.
Screening CN1CCCCC/C1=N/c1nc(-c2ccccc2)cs1 returned Sa growth inh 93, HCMV UL50-53 inh -18 and Sa growth inh second temp 90.
`CCOc1ccc(C(=O)C(C)Sc2nc(C)cc(=O)[nH]2)cc1` (stereo unspecified) gave Sa growth inh 84, HCMV UL50-53 inh -30 and Sa growth inh second temp 80.
For CCOc1ccc(NC(=O)c2cc(S(=O)(=O)N3CCc4ccccc43)ccc2F)cc1 the results were Sa growth inh 132, GIV Gai3 FP 105 and Sa growth inh second temp 95.
Cc1nc(C(=O)Oc2ccc(Cl)cc2)sc1C(=O)Oc1ccc(Cl)cc1 was read as Sa growth inh 99, HCMV UL50-53 inh -29, GIV Gai3 FP 99 and Sa growth inh second temp 82.
`C=CCN1C(=O)CN=C1NCc1ccccc1` gave Sa growth inh 113, HCMV UL50-53 inh -14, GIV Gai3 FP 98 and Sa growth inh second temp 95.
`Cc1ccc(Nc2nc3ccccc3o2)cc1F` gave Sa growth inh 111, HCMV UL50-53 inh 2 and Sa growth inh second temp 97.
COc1ccccc1N1CCN(C(=O)c2sc3nc(-c4ccc(F)cc4)cn3c2C)CC1 was read as Sa growth inh 72, HCMV UL50-53 inh -24, GIV Gai3 FP 102 and Sa growth inh second temp 33.
O=C(NCCC1=CCCCC1)c1ccc2c(c1)N(Cc1ccccc1F)C(=O)c1ccccc1S2=O (stereo unspecified) was read as Sa growth inh 107, HCMV UL50-53 inh 8, GIV Gai3 FP 106 and Sa growth inh second temp 102.
For O=C1c2cccnc2C(=O)N1Cc1ccc(S(=O)(=O)N2CCc3ccccc32)cc1 the results were Sa growth inh 97, GIV Gai3 FP 102 and Sa growth inh second temp 96.
`CC1C(=O)NN=C1C(=O)N/N=C/c1ccc(OC(=O)c2ccco2)cc1` (stereo unspecified) gave Sa growth inh 101, HCMV UL50-53 inh -44 and Sa growth inh second temp 90.
`CSc1ccc(Cl)c(C(=O)OCC(=O)NCc2ccccc2)c1` gave Sa growth inh 93, HCMV UL50-53 inh -23 and Sa growth inh second temp 86.
`COc1ccccc1NC(=O)c1ccc(C(C)(C)C)cc1` gave Sa growth inh 82, HCMV UL50-53 inh 6 and Sa growth inh second temp 65.
For CCc1cccc(NC(=O)C2CCN(C(=O)c3cnn(-c4ccccc4)c3-n3cccc3)CC2)c1 the results were Sa growth inh 96, HCMV UL50-53 inh -19, GIV Gai3 FP 102 and Sa growth inh second temp 80.
Screening CCOCCOC(=O)C1=C(C)NC2=C(C(=O)CC(c3ccccc3)C2)C1c1ccccc1Br (stereo unspecified) returned HCMV UL50-53 inh 2 and GIV Gai3 FP 106.
For CCCn1c(NC(=O)c2ccccc2)nc2ccccc21 the results were Sa growth inh 160, HCMV UL50-53 inh -9 and Sa growth inh second temp 80.
Screening CCOC(=O)c1ccoc1CN1CCN(C/C=C/c2ccccc2)CC1 returned Sa growth inh 117, HCMV UL50-53 inh 26 and Sa growth inh second temp 90.
For CC(C)C(NS(=O)(=O)c1cccc2nsnc12)C(=O)N1CCn2c1nc1ccccc12 (stereo unspecified) the results were Sa growth inh 91, HCMV UL50-53 inh -48, GIV Gai3 FP 100 and Sa growth inh second temp 88.
Screening Cc1ccc(/C=C/c2nc(-c3ccc4c(c3)[nH]c(=O)n4C(C)C)no2)cc1 returned HCMV UL50-53 inh -29 and GIV Gai3 FP 98.
`Cc1ccc(-n2nc(C(=O)N3CCCCC3C)c(=O)n(C)c2=O)cc1` (stereo unspecified) gave Sa growth inh 86, GIV Gai3 FP 101 and Sa growth inh second temp 86.
CCCNC(=O)c1cnn2c(C)c(Cc3ccc(F)cc3)c(C)nc12 was read as Sa growth inh 85, HCMV UL50-53 inh -12, GIV Gai3 FP 99 and Sa growth inh second temp 91.
Screening CCSc1nn(CC(=O)Nc2ccc3c(c2)OCO3)c(N)c1S(=O)(=O)c1ccccc1 returned HCMV UL50-53 inh -4 and GIV Gai3 FP 103.
`O=C(Cc1ccc2ccccc2n1)C(F)(F)F` gave Sa growth inh 92, HCMV UL50-53 inh -96, GIV Gai3 FP 98 and Sa growth inh second temp 70.
`C=Cc1ccc(CSc2nccn3nc(-c4ccccc4)cc23)cc1` gave HCMV UL50-53 inh -21 and GIV Gai3 FP 113.
For CC1CCC(=NNC(=O)Cc2ccccc2)CC1 (stereo unspecified) the results were Sa growth inh 94, HCMV UL50-53 inh 3, GIV Gai3 FP 106 and Sa growth inh second temp 93.
Screening CC(=O)N(C)c1ccc(N=Cc2ccc[nH]2)cc1 returned Sa growth inh 104, HCMV UL50-53 inh -1, GIV Gai3 FP 98 and Sa growth inh second temp 113.
`COc1ccc(-c2nc3ccc(C(=O)NCc4ccc(C)cc4)cc3nc2-c2ccc(OC)cc2)cc1` gave Sa growth inh 135, GIV Gai3 FP 105 and Sa growth inh second temp 93.
`CCc1ccc(-c2nc(CSCC(=O)N3CCc4ccccc43)c(C)o2)cc1` gave Sa growth inh 85, GIV Gai3 FP 102 and Sa growth inh second temp 88.
For O=C(NCc1cn2ccccc2n1)c1ccco1 the results were Sa growth inh 104, GIV Gai3 FP 105 and Sa growth inh second temp 86.
`CC1CCN(S(=O)(=O)c2ccc3c(ccn3CC(=O)NCc3ccc(N(C)C)cc3)c2)CC1` gave Sa growth inh 105, GIV Gai3 FP 111 and Sa growth inh second temp 96.
Screening CC1=Nc2c(ccc3cccnc23)C1(C)C returned Sa growth inh 3.0*, HCMV UL50-53 inh -25, GIV Gai3 FP 132 and Sa growth inh second temp 2.1*.
For Cc1ccc2c(c1)C=C(C(=O)Nc1ccc(C)c(C)c1)C=CO2 the results were HCMV UL50-53 inh 9 and GIV Gai3 FP 105.
O=C(/C=C/c1ccccc1)Nc1cccnc1Oc1ccc(F)cc1F was read as Sa growth inh 123, HCMV UL50-53 inh 0, GIV Gai3 FP 107 and Sa growth inh second temp 98.
Screening CCOc1ccc(CCNC(=O)CCc2cn(Cc3ccccc3F)c3ccccc23)cc1OCC returned Sa growth inh 124, GIV Gai3 FP 107 and Sa growth inh second temp 88.
Screening Cc1ccccc1OCCCn1c(CO)nc2ccccc21 returned HCMV UL50-53 inh -24 and GIV Gai3 FP 106.
Cc1c(NC(=O)c2ccc(OC(C)C)cc2)cccc1-c1nc2ncccc2o1 was read as Sa growth inh 97, HCMV UL50-53 inh -40, GIV Gai3 FP 104 and Sa growth inh second temp 87.

Part of the list above in order of count of non-hydrogen atoms, rising:
Screening CC1=Nc2c(ccc3cccnc23)C1(C)C returned Sa growth inh 3.0*, HCMV UL50-53 inh -25, GIV Gai3 FP 132 and Sa growth inh second temp 2.1*.
Screening CC(=O)N(C)c1ccc(N=Cc2ccc[nH]2)cc1 returned Sa growth inh 104, HCMV UL50-53 inh -1, GIV Gai3 FP 98 and Sa growth inh second temp 113.
For Cc1ccc2c(c1)C=C(C(=O)Nc1ccc(C)c(C)c1)C=CO2 the results were HCMV UL50-53 inh 9 and GIV Gai3 FP 105.
O=C(/C=C/c1ccccc1)Nc1cccnc1Oc1ccc(F)cc1F was read as Sa growth inh 123, HCMV UL50-53 inh 0, GIV Gai3 FP 107 and Sa growth inh second temp 98.
`CCc1ccc(-c2nc(CSCC(=O)N3CCc4ccccc43)c(C)o2)cc1` gave Sa growth inh 85, GIV Gai3 FP 102 and Sa growth inh second temp 88.
Cc1c(NC(=O)c2ccc(OC(C)C)cc2)cccc1-c1nc2ncccc2o1 was read as Sa growth inh 97, HCMV UL50-53 inh -40, GIV Gai3 FP 104 and Sa growth inh second temp 87.
`CC1CCN(S(=O)(=O)c2ccc3c(ccn3CC(=O)NCc3ccc(N(C)C)cc3)c2)CC1` gave Sa growth inh 105, GIV Gai3 FP 111 and Sa growth inh second temp 96.
Screening CCOc1ccc(CCNC(=O)CCc2cn(Cc3ccccc3F)c3ccccc23)cc1OCC returned Sa growth inh 124, GIV Gai3 FP 107 and Sa growth inh second temp 88.
`COc1ccc(-c2nc3ccc(C(=O)NCc4ccc(C)cc4)cc3nc2-c2ccc(OC)cc2)cc1` gave Sa growth inh 135, GIV Gai3 FP 105 and Sa growth inh second temp 93.

Compounds were not picked by outcome; 0.83% or so of the library scored in one or more.
